Screens deposited in PubChem by National Center for Advancing Translational Sciences (NCATS).
PINK1 modulator – changes PINK1 expression; PINK1 immunofluorescence, high-content cytometry, 24 h; Potency, µM (top dose mostly 76.6 µM), inactives show at the highest dose activation (PINK1 increase), most hits filed as activators; 0.2% of 410,000 active; AID 624263; active = well fitted activation curve with a large enough effect; inconclusive = small, poorly fitted or top-dose-only effect; inactive = flat fitted curve, though single readings scatter; cell line not stated here;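 further: % of control where 0% means no effect; nearly all actives have a fitted effect of over 65% in size; a mitochondrial uncoupler was the plate control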
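Stable cell line treated 24 h with compounds at 5 concentrations (CCCP controls), then fixed and immunostained for PINK1 plus nuclear and cell stains; PINK1 immunofluorescence quantified by laser-scanning microplate cytometry.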
* = called active by the depositor; ? = inconclusive. Potency means the concentration at half of the fitted maximal effect. Some of the compounds tested (hit frequency here may not be typical).

PINK1 modulator	compound
1.1%	COc1ccc(-c2[nH]c3ccccc3c2SCCNC(=O)c2cc(OC)c(OC)c(OC)c2)cc1
0.2%	CC(C)c1ccccc1NC(=O)CSc1nnc(COc2ccccc2Cl)o1
1.6%	O=C(NCc1cccc(Cl)c1)c1ccc2nc(N3CCCCC3)sc2c1
-0.1%	CCS(=O)(=O)N1CC(=O)N(c2ccc(Cl)cc2C)C(C)(C(=O)NC2CCCCC2)C1 (stereo unspecified)
5.2%	COc1cc(-c2nc(Cn3nnc(C(=O)Nc4ccccc4C)c3C)c(C)o2)cc(OC)c1OC
9.9%	O=C1CCSC2(C(=O)N(Cc3ccc(F)cc3)c3ccccc32)N1c1ccc(Cl)cc1 (stereo unspecified)
1.0%	O=c1n(Cc2ccc(Cl)cc2)c2ccccc2c2nc(-c3ccccc3)nn12
1.2%	COc1ccc(Cn2c(=O)c3oc4ccccc4c3n(CC(=O)Nc3ccc(F)cc3F)c2=O)cc1
-0.5%	CC(NC(=O)c1ccco1)c1nnc2n1CCN(Cc1ccc(Cl)cc1)CC2 (stereo unspecified)
-1.0%	Cc1cccc(CNC(=O)c2ccc3c(c2)N(C)C(=O)C2CCCCN32)c1 (stereo unspecified)
1.1%	COc1ccc(S(=O)(=O)NCC(c2ccco2)S(=O)(=O)c2cccs2)cc1OC (stereo unspecified)
-4.1%	CCCCNC(=O)C1CCN(S(=O)(=O)CCC)CC1
-1.5%	Cc1cccc(C)c1NC(=O)C(=O)NCC(c1ccc2c(c1)OCO2)N1CCN(C)CC1 (stereo unspecified)
0.6%	C#CCn1c(=NC(=O)c2ccc3c(c2)OCCO3)sc2cc(OC)c(OC)cc21
-1.2%	COc1ccc(Cn2c(=O)c3cccnc3n(Cc3cccc(OC)c3)c2=O)cc1
0.9%	CCOc1ccc(CNC(=O)c2ccc(CS(=O)Cc3ccc(Cl)cc3)o2)cc1 (stereo unspecified)
-0.5%	COc1ccc(C2C=C(c3ccccc3)Nc3nc(NC(=O)c4ccc(C)cc4)nn32)cc1 (stereo unspecified)
0.5%	Cc1cccnc1-c1cccc2c1OC(CNC(=O)Cc1c(C)noc1C)C2 (stereo unspecified)
3.3%	Cc1ccc(CCNC(=O)c2ccc3c(=O)n(-c4ccccc4)c(=O)[nH]c3c2)cc1
0.4%	Cc1cc2nc(-c3ccc(OCc4ccccc4)cc3)cc(C(F)(F)F)n2n1
0.5%	Cc1ccc(NC(=O)c2c(C)cc(C)nc2SCC(=O)Nc2ccc(Br)cc2)cc1
0.1%	Cc1cccc(C(=O)Nc2cccc(C(=O)OCc3cc(=O)n4c5c(sc4n3)CCCC5)c2)c1
1.8%	Cc1nc2nc(NC(=O)c3ccc(Cl)cc3)[nH]n2c(=O)c1Cc1ccccc1
3.6%	CCN(c1ccccc1)S(=O)(=O)c1cc(Br)cc2c1N(C(=O)C1CC1)CC2
1.0%	Cc1nc([N+](=O)[O-])cn1CC(O)c1ccc2c(c1)OCCO2 (stereo unspecified)
-0.3%	O=C(c1cc2c(=O)oc3ccccc3c2s1)N1CCN(c2cccc(Cl)c2)CC1
0.4%	COc1ccccc1CCNC(=O)C(=O)NCC(c1cccs1)S(=O)(=O)c1ccc(C)cc1 (stereo unspecified)
0.3%	CCOC(=O)c1scc(-c2ccccc2)c1S(=O)(=O)Nc1cc(Cl)c(OC)cc1OC
1.6%	CCOc1ccc(NC(=O)CN2CCN(S(=O)(=O)c3ccc(OC)cc3)CC2)cc1
-0.3%	COc1cccc(Nc2nc3c(S(=O)(=O)c4cc(C)ccc4C)nnn3c3ccsc23)c1
2.8%	CCc1cccc(-n2c(=O)c3cccnc3n2CC(=O)Nc2ccc(F)c(C)c2)c1
0.7%	CCN(Cc1ccccc1)C(=O)Cn1c(=O)n(-c2ccc(C)c(C)c2)c(=O)c2c(C)c(C)sc21
0.5%	CC1CCC(N2CC(=O)N(CCC3=CCCCC3)C(c3ccc(F)cc3)C2=O)CC1 (stereo unspecified)
2.4%	Cc1ccc(SCC(=O)Nc2ccc(O)c(-c3nc4cc(C)ccc4o3)c2)cc1
5.7%	COc1ccc(-n2nc(C(=O)NCCCOC(C)C)c3c4ccccc4n(C)c3c2=O)cc1
1.9%	CC(C)Nc1nc2c(S(=O)(=O)c3cccc(Cl)c3)nnn2c2ccsc12
-0.4%	CCOC(=O)c1ccc(CN(Cc2ccc(F)cc2)S(=O)(=O)c2cc(C(=O)Nc3cccc(C(F)(F)F)c3)ccc2F)cc1
-1.1%	O=C(Nc1cccc(F)c1)C1CCN(c2nc3ccccc3[nH]2)CC1
-2.1%	COc1cc(NC(=O)Cn2c(=O)n(Cc3ccccc3OC)c(=O)c3cccnc32)cc(OC)c1
6.6%	Cc1cnc2c(C)cccc2c1/C=C/c1ccc(N(C)C)cc1
2.7%	Cc1ccc(NC(=O)c2cccc(N3CCCS3(=O)=O)c2)cc1C
1.4%	CCCCOc1ccc(C(=O)Nc2sc3c(c2C(=O)OCC)CCCCC3)cc1
-0.4%	Cc1ccc(CCNC(=O)C2CCN(c3nnc(C)c4c(C)n(-c5ccccc5)nc34)CC2)cc1
2.9%	COc1cc(CNC(=O)c2ccc3nc(Cc4ccccc4)oc3c2)cc(OC)c1OC
-0.2%	CCCc1cc(=O)[nH]c(Nc2ccccc2O)n1
-0.8%	COc1ccc(CNC(=O)c2cnn3c(C)c(Cc4ccc(F)cc4)c(C)nc23)cc1
0.2%	CCOc1ccc(C2c3c(oc4ccc(C)cc4c3=O)C(=O)N2Cc2ccc3c(c2)OCO3)cc1OC (stereo unspecified)
-0.8%	Cn1c2cc(C#N)sc2c2cnn(Cc3ccc(F)cc3)c(=O)c21
1.7%	O=C(CSc1nnc(-c2ccc(Br)cc2)n1-c1ccccc1)c1ccccc1
-0.7%	Cc1oc(-c2cccc(Cl)c2)nc1CSCC(=O)NCc1ccccc1Cl
7.8%	Cc1ccc(NC(=O)CSC2=Nc3ccccc3C3=NC(Cc4ccccc4)C(=O)N23)cc1C (stereo unspecified)
1.3%	Cc1ncc2c(c1CNC(=O)c1cncs1)CCN(C(=O)c1ccc(-c3ccccc3)cc1)C2
1.2%	CCN(C(=O)c1cn(CC(C)C)c(=O)c2cc(OC)c(OC)cc12)c1cc(OC)ccc1OC
-1.4%	CCc1ccc(NC(=O)c2cc(S(=O)(=O)NC3CCCC3)ccc2F)cc1
21%	Cc1ccc(Cn2cc(S(=O)(=O)c3cccc(Cl)c3)c(=O)c3cc(F)c(N4CCOCC4)cc32)cc1
-4.3%	COc1cccc(-n2c(SCC(=O)Nc3cccc(C)c3)nc3c([nH]c4ccccc43)c2=O)c1

Next compounds:
PINK1 modulator	compound
0.1%	CC(C)(C)c1ccc(C(=O)NCC(c2ccc(Cl)cc2)N2CCOCC2)cc1 (stereo unspecified)
9.8%	COc1ccc(CCNc2ncnc3c2cnn3-c2ccc(C)c(Cl)c2)cc1
0.6%	COc1ccc(Br)cc1CNC(=O)c1cnc2sc(N3CCCCCC3)nn2c1=O
0.1%	O=C(Cn1cccn1)N1CCOc2c(cc(-c3ncc(C(F)(F)F)cc3Cl)cc2OCC2CCCO2)C1 (stereo unspecified)
-0.7%	Cc1ccc(NC(=O)CSc2nc3ccc(NC(=O)c4cccs4)cc3s2)c(C)c1
-1.5%	COc1ccccc1CN(Cc1ccco1)c1cnc(S(C)(=O)=O)nc1C(=O)Nc1ccccc1Cl
1.0%	O=C(Cn1ncc2c(=O)oc3ccccc3c21)NCc1ccc(Cl)cc1
1.3%	CN(C(=O)CSc1cn(CC(=O)N2CCCC2)c2ccccc12)c1ccccc1
1.7%	CC(C)OC(=O)c1c(NC(=O)C2c3ccccc3Oc3ccccc32)sc2c1CCCC2
3.7%	Cc1cccn2c(=O)c(/C=C(\C#N)c3nc4ccccc4s3)c(Oc3ccc(F)cc3)nc12
2.3%	COc1ccc(CC(=O)NCc2nc3cccnc3n2Cc2ccccc2)cc1
-3.2%	CCc1cccc(N2C(=O)CS(=O)(=O)C23C(=O)N(Cc2ccc(F)cc2)c2ccc(C)cc23)c1 (stereo unspecified)
1.6%	O=C(Nc1ccc(S(=O)(=O)Nc2ncccn2)cc1)c1cccc(Cl)c1
-0.1%	CS(=O)(=O)N(Cc1ccccc1)c1ccc(C(=O)Nc2cccc(Cl)c2)cc1
0.8%	CCOc1ccccc1NC(=O)C(C)Sc1cc(-c2ccccc2)nc(C)n1 (stereo unspecified)
0.6%	CCOc1cc(C(=O)Nc2ccc(-c3nc4cc(C)ccc4o3)cc2)cc(OCC)c1OCC

Three entries out of the list above, sorted by the number in PINK1 modulator, descending.
SMILES | PINK1 modulator
CCN(c1ccccc1)S(=O)(=O)c1cc(Br)cc2c1N(C(=O)C1CC1)CC2 | 3.6%
CCS(=O)(=O)N1CC(=O)N(c2ccc(Cl)cc2C)C(C)(C(=O)NC2CCCCC2)C1 (stereo unspecified) | -0.1%
O=C(c1cc2c(=O)oc3ccccc3c2s1)N1CCN(c2cccc(Cl)c2)CC1 | -0.3%

Following part.
PINK1 modulator	compound
10%	Cc1ccc(CN2CCC(CNC(=O)c3cc4ccc5cccnc5c4[nH]3)CC2)cc1
-0.9%	Cc1nn(-c2ccccn2)c2c1-c1nc(N)sc1CC2
-0.9%	Cc1cc(C)c(NC(=O)CCS(=O)(=O)c2cc3c(cc2Cl)NC(=O)CO3)c(C)c1
-1.6%	CCCCN(CC)Cc1ccc(CNS(=O)(=O)c2cc3c(cc2Cl)NC(=O)CO3)o1
1.9%	CCc1ccc(NC(=O)Cn2c(=O)n(-c3cc(OC)c(OC)c(OC)c3)c(=O)c3ccccc32)cc1
-1.6%	CSc1ccc(CNC(=O)c2ccccc2NC(=O)c2nsc3ccccc23)cc1
0.2%	Cc1cc2c(cc1NC(=O)c1ccccc1Cl)n(C)c(=O)c(=O)n2C
1.6%	Cc1ccc(-c2onc(C)c2C)cc1S(=O)(=O)NC1CCCCC1
1.1%	Cc1ccccc1C(=O)NCC(c1cccnc1)N1CCc2ccccc21 (stereo unspecified)
2.8%	COc1ccccc1/C=C/c1cncc(/C=C/c2ccccc2OC)c1
-3.5%	COc1ccc(-n2c(SCC(=O)Nc3ccc4c(c3)OCO4)nc3c([nH]c4ccccc43)c2=O)cc1
0.3%	O=[N+]([O-])c1ccc(S(=O)(=O)N2CCN(c3nc(-c4cccs4)nc4ccccc34)CC2)cc1
2.8%	CC1CCN(S(=O)(=O)c2ccc3c(c2)oc(=O)n3CC(=O)NC(C)c2ccccc2)CC1 (stereo unspecified)
24%	Cc1ccc(-c2cc(NC(=O)C(C)Oc3ccc(C)c(C)c3)on2)cc1 (stereo unspecified)
0.9%	CC(=O)Nc1cc(C(=O)NCc2ccccc2)ccc1Sc1ccc(C)cc1
4.0%	O=c1oc2ccccc2cc1-c1cn2cc(Cc3ccccc3F)sc2n1
0.9%	CC(=O)c1c(C)oc2ccc(N(C(=O)Oc3ccccc3)S(=O)(=O)c3ccc(C(C)(C)C)cc3)cc12
-0.3%	Cc1cn2c(=O)cc(COC(=O)c3cccc(NC(=O)COc4ccccc4Cl)c3)nc2s1
3.1%	CC(C)CCNC(=O)c1cnc2sc(N3CCCCCC3)nn2c1=O
-4.5%	O=C(CN1C(=O)C2(SCC(=O)N2c2cccc(Cl)c2)c2ccccc21)NC1CCCCC1 (stereo unspecified)
1.4%	CCN(C(=O)c1cc2c(=O)n(CC)c3ccccc3c2s1)c1cccc(C(F)(F)F)c1
1.4%	Cc1cc(-c2ccc(C)c(S(=O)(=O)N3c4ccccc4CC3C)c2)on1 (stereo unspecified)
2.8%	COc1cccc(NC(=O)CCNC(=O)Cn2cnc3ccccc3c2=O)c1
-4.4%	O=C(CSc1nc2c([nH]c3ccccc32)c(=O)n1-c1ccc(Cl)cc1)NCC1CCCO1 (stereo unspecified)

Exported field by field: entries from further up
canonical_smiles: CC(=O)c1c(C)oc2ccc(N(C(=O)Oc3ccccc3)S(=O)(=O)c3ccc(C(C)(C)C)cc3)cc12
  PINK1 modulator = 0.9%
canonical_smiles: Cc1cn2c(=O)cc(COC(=O)c3cccc(NC(=O)COc4ccccc4Cl)c3)nc2s1
  PINK1 modulator = -0.3%
canonical_smiles: CC(C)CCNC(=O)c1cnc2sc(N3CCCCCC3)nn2c1=O
  PINK1 modulator = 3.1%

(more compounds)
PINK1 modulator	compound
?	Cc1ccc2c(=O)cc(C(=O)Nc3sc4c(c3C(=O)NCc3cccnc3)CCCC4)oc2c1
0.2%	Cc1c(Cl)cccc1NC(=O)c1oc2ccc(S(=O)(=O)N3CCCCCC3)cc2c1C
-1.6%	COc1ccc(NC(=O)CSc2nc(-c3ccc(F)cc3)c3cccc(C)c3n2)cc1
0.3%	CCOC(=O)c1ccc(-c2ccc(/C=C(\C#N)C(=O)Nc3ccc(C)cc3)o2)cc1
-0.8%	COc1ccc(C(=O)NCCc2csc(-c3ccc(Cl)cc3)n2)cc1
1.2%	CCc1nc2cc(C(=O)N(C)CC3COCCO3)cc(NC(=O)c3ccccc3OC)c2n1C (stereo unspecified)
0.4%	O=C(c1ccc(Cl)cc1)N1CCN(CCc2ccncc2)CC1

Random excerpt: two entries already listed.
PINK1 modulator	compound
-1.6%	COc1ccc(NC(=O)CSc2nc(-c3ccc(F)cc3)c3cccc(C)c3n2)cc1
0.2%	Cc1c(Cl)cccc1NC(=O)c1oc2ccc(S(=O)(=O)N3CCCCCC3)cc2c1C
